A1 apoptosis 2: A1 inhibitors via caspase activation, primary screen, cell-based, luminescence, HTS, two replicates; MEF A1-2A-BIM cells, caspase-Glo luminescence, 3 h; percent of clofoctol response, DMSO zero; caspase activation, % (concentration not given with the values); 24,000 tested, under 10 active; AID 2465, 2010; in the data active = caspase activation above about 5.9%;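 note: wells of about 30 µL received 50 nL stock; the first replicate is given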
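Evaluation: Caspase-3/7 activity from luminescence increase | Assay system: A1-2A-BIM mouse embryonic fibroblasts | Quantity: 2500 MEF cells/well | Medium: RPMI-1640 plus 10% FBS | Detection: Caspase-Glo 3/7 luminescence, 1 h at room temperature | Dosing: 50 nL compound per well, pinned | Timing: Cells settled overnight, compound exposure 3 h at 37 °C, 5% CO2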
* = called active by the depositor.

SMILES | A1 apoptosis 2
C[C@@H]1CN([C@H](C)CO)C(=O)CCCn2cc(nn2)CO[C@H]1CN(C)S(=O)(=O)c1ccc(Cl)cc1 | -0.2
C[C@@H]1CN([C@@H](C)CO)C(=O)c2cc(NC(=O)NC3CCCCC3)ccc2O[C@H]1CN(C)S(=O)(=O)c1ccc(Cl)cc1 | -0.5
C[C@@H]1CN([C@@H](C)CO)C(=O)c2cc(NC(=O)C3CCCCC3)ccc2O[C@@H](C)CCCCO[C@@H]1CN(C)C(=O)Nc1ccc(C(F)(F)F)cc1 | 0.8
COc1ccc(CN(C)C[C@@H]2Oc3c(NC(=O)Nc4ccc5c(c4)OCO5)cccc3C(=O)N([C@@H](C)CO)C[C@H]2C)cc1 | 0.3
COc1ccc(S(=O)(=O)Nc2ccc3c(c2)CC(=O)N([C@H](C)CO)C[C@@H](C)[C@@H](CN(C)C)O3)cc1 | 0.6
C[C@@H]1CN([C@H](C)CO)C(=O)c2cc(NS(=O)(=O)c3ccc(Cl)cc3)ccc2O[C@@H](C)CCCCO[C@@H]1CN(C)C | 0.3
COc1ccc(S(=O)(=O)Nc2ccc3c(c2)C(=O)N([C@H](C)CO)C[C@H](C)[C@@H](CN(C)C(=O)Nc2ccc4c(c2)OCO4)OCCCC[C@H](C)O3)cc1 | 0.9
Cc1noc(C)c1NC(=O)Nc1ccc2c(c1)C(=O)N([C@@H](C)CO)C[C@H](C)[C@H](CN(C)S(=O)(=O)c1ccc(F)cc1)O2 | -0.2
C[C@H]1CN([C@@H](C)CO)C(=O)c2cc(NC(=O)Cc3ccccc3)ccc2O[C@@H]1CN(C)C | 0.3
C[C@H](CO)N1C[C@H](C)[C@H](CN(C)Cc2ccc(Oc3ccccc3)cc2)Oc2c(NS(=O)(=O)c3ccccc3)cccc2C1=O | -1.9
C[C@@H]1CN([C@@H](C)CO)C(=O)c2cccc(NC(=O)c3ccc(-c4nccs4)cc3)c2O[C@@H]1CN(C)C | -1.5
Cc1noc(C)c1S(=O)(=O)N(C)C[C@@H]1OCCCC[C@@H](C)Oc2ccc(NS(=O)(=O)c3ccccc3)cc2C(=O)N([C@@H](C)CO)C[C@H]1C | -0.4

Single entries from the list:
In A1 apoptosis 2, `C[C@@H]1CN([C@@H](C)CO)C(=O)c2cc(NC(=O)C3CCCCC3)ccc2O[C@@H](C)CCCCO[C@@H]1CN(C)C(=O)Nc1ccc(C(F)(F)F)cc1` is listed with 0.8
In A1 apoptosis 2, `C[C@@H]1CN([C@@H](C)CO)C(=O)c2cc(NC(=O)NC3CCCCC3)ccc2O[C@H]1CN(C)S(=O)(=O)c1ccc(Cl)cc1` is listed with -0.5

Next part
SMILES | A1 apoptosis 2
Cc1cc(C(=O)Nc2cccc3c2O[C@@H](CN(C)C(=O)NC2CCCCC2)[C@@H](C)CN([C@@H](C)CO)C3=O)n(C)n1 | 2.0
C[C@H](CO)N1C[C@H](C)[C@@H](CN(C)C(=O)NC2CCCCC2)OCCCC[C@H](C)Oc2ccc(NC(=O)Cc3ccccc3)cc2C1=O | 1.2
CNC[C@H]1Oc2ccc(N(C)C)cc2CC(=O)N([C@H](C)CO)C[C@H]1C | 0.4
C[C@@H]1CCCCO[C@@H](CN(C)Cc2ccc(Cl)c(Cl)c2)[C@@H](C)CN([C@@H](C)CO)C(=O)c2cc(NC(=O)Nc3ccc(C(F)(F)F)cc3)ccc2O1 | 0.2
COc1ccc(NC(=O)N(C)C[C@@H]2Oc3ccc(NC(=O)CCC(F)(F)F)cc3C(=O)N([C@H](C)CO)C[C@H]2C)cc1 | -0.7
COC(=O)[C@H](Cc1ccccc1)N1CC2=C[C@H](C3CC3)n3c(=O)n(C)c(=O)n3[C@@H]2[C@H]1[C@H](O)Cc1ccccc1 | -0.1
C[C@H](CO)N1C[C@H](C)[C@@H](CN(C)S(=O)(=O)c2ccc(F)cc2)Oc2ccc(NC(=O)Nc3ccccc3)cc2CC1=O | -0.2
CNC[C@@H]1Oc2ccc(NC(=O)Cc3cn(C)c4ccccc34)cc2CC(=O)N([C@H](C)CO)C[C@@H]1C | -0.3
C[C@H](CO)N1C[C@H](C)[C@@H](CN(C)C(=O)c2ccccc2)OCCCC[C@H](C)Oc2ccc(NS(=O)(=O)c3cccs3)cc2C1=O | 1.2
Cc1noc(C)c1NC(=O)Nc1ccc2c(c1)CC(=O)N([C@H](C)CO)C[C@@H](C)[C@H](CN(C)CC1CC1)O2 | -0.1
C[C@H]1CN([C@@H](C)CO)C(=O)c2cccc(NC(=O)Nc3cccc4ccccc34)c2O[C@@H]1CN(C)C(=O)Nc1cccc2ccccc12 | 4.3
C[C@H](CO)N1C[C@H](C)[C@H](CN(C)C(=O)Nc2ccccc2)Oc2c(NC(=O)NC3CCCCC3)cccc2C1=O | 0.0

Part of the list above, with tabs:
SMILES	A1 apoptosis 2
Cc1noc(C)c1NC(=O)Nc1ccc2c(c1)CC(=O)N([C@H](C)CO)C[C@@H](C)[C@H](CN(C)CC1CC1)O2	-0.1
C[C@H]1CN([C@@H](C)CO)C(=O)c2cccc(NC(=O)Nc3cccc4ccccc34)c2O[C@@H]1CN(C)C(=O)Nc1cccc2ccccc12	4.3

(further entries)
SMILES | A1 apoptosis 2
C[C@@H]1CN([C@H](C)CO)C(=O)c2cccc(NC(=O)C3CCOCC3)c2O[C@H]1CN(C)C(=O)Nc1ccc(C(F)(F)F)cc1 | 0.3
C[C@@H]1CCCCO[C@@H](CN(C)C(=O)Nc2ccc3c(c2)OCO3)[C@H](C)CN([C@@H](C)CO)C(=O)c2cc(NC(=O)c3ccccc3)ccc2O1 | -0.5
C[C@@H]1CN([C@H](C)CO)C(=O)c2cccc(NS(=O)(=O)c3ccc(F)cc3)c2O[C@@H]1CN(C)CC1CCCCC1 | 1.5
CC(C)C[C@@H]1NC(=O)[C@@H]2C[C@H](C(=O)NCc3ccc(F)cc3)[C@H](c3cccc(OCCO)c3)N2C1=O | 0.3
C[C@@H]1CN([C@H](C)CO)C(=O)c2cccc(NC(=O)Nc3ccc(F)cc3)c2O[C@@H]1CN(C)Cc1ccc(C(F)(F)F)cc1 | 0.0
CNC[C@H]1Oc2c(NC(=O)c3ccc(-c4nccs4)cc3)cccc2C(=O)N([C@@H](C)CO)C[C@H]1C | -0.3
C[C@H](CO)N1C[C@H](C)[C@H](CN(C)C)Oc2ccc(NC(=O)Nc3ccccc3)cc2C1=O | -0.1
CC(C)NC(=O)N(C)C[C@@H]1Oc2ccc(NS(C)(=O)=O)cc2CC(=O)N([C@H](C)CO)C[C@@H]1C | -0.9
Cc1noc(C)c1NC(=O)Nc1ccc2c(c1)C(=O)N([C@H](C)CO)C[C@@H](C)[C@@H](CN(C)Cc1ccc(C(F)(F)F)cc1)OCCCC[C@H](C)O2 | -0.1
COc1ccc(NC(=O)Nc2ccc3c(c2)CC(=O)N([C@H](C)CO)C[C@H](C)[C@H](CN(C)C(=O)Nc2ccccc2)O3)cc1 | -0.2
C[C@@H]1CN([C@@H](C)CO)C(=O)Cc2cc(NS(=O)(=O)c3ccc(Cl)cc3)ccc2O[C@@H]1CN(C)CC1CCCCC1 | -1.8
C[C@@H]1CN([C@H](C)CO)C(=O)c2cc(NS(C)(=O)=O)ccc2O[C@@H](C)CCCCO[C@@H]1CN(C)S(=O)(=O)c1cn(C)cn1 | 0.5
C[C@@H]1CN([C@H](C)CO)C(=O)Cc2cc(NS(C)(=O)=O)ccc2O[C@H]1CN(C)Cc1ccccc1 | 0.9
C[C@@H]1CN([C@@H](C)CO)C(=O)Cc2cc(NC(=O)c3ccncc3)ccc2O[C@@H]1CN(C)Cc1ccncc1 | -0.2
C[C@H](CO)N1C[C@H](C)[C@H](CN(C)Cc2ccncc2)Oc2ccc(NC(=O)NC3CCCCC3)cc2C1=O | -0.8
Cc1noc(C)c1NC(=O)Nc1ccc2c(c1)CC(=O)N([C@H](C)CO)C[C@@H](C)[C@@H](CN(C)C(=O)NC1CCCCC1)O2 | 1.4
Cc1ccc(S(=O)(=O)Nc2ccc3c(c2)C(=O)N([C@@H](C)CO)C[C@@H](C)[C@H](CN(C)C(=O)Nc2ccc(C(F)(F)F)cc2)OCCCC[C@@H](C)O3)cc1 | 0.2
COCCOC(=O)N1C(=O)[C@@]2(c3cc(C#CCCO)ccc31)[C@H](c1ccccc1OCCO)N1[C@H](c3ccccc3)[C@H](c3ccccc3)OC(=O)[C@H]1[C@@H]2C(=O)N1CCc2cc(OC)c(OC)cc2C1 | 0.2
C[C@@H]1CN([C@@H](C)CO)C(=O)c2cc(NC(=O)c3ccncc3)ccc2O[C@@H](C)CCCCO[C@@H]1CN(C)C(=O)C1CCCCC1 | -0.8
CC(C)NC(=O)Nc1ccc2c(c1)C(=O)N([C@@H](C)CO)C[C@@H](C)[C@H](CN(C)Cc1ccccc1)OCCCC[C@@H](C)O2 | -2.0
COc1ccc(NC(=O)Nc2ccc3c(c2)C(=O)N([C@@H](C)CO)C[C@@H](C)[C@@H](CN(C)S(=O)(=O)c2ccccc2)O3)cc1 | -0.5
Cc1noc(C)c1NC(=O)N(C)C[C@@H]1Oc2ccc(NS(C)(=O)=O)cc2C(=O)N([C@H](C)CO)C[C@H]1C | -0.2
C[C@@H]1CN([C@@H](C)CO)C(=O)c2cc(NS(=O)(=O)c3ccc(Cl)cc3)ccc2O[C@@H]1CN(C)C(=O)NC1CCCCC1 | 2.0
C[C@@H]1CCCCO[C@@H](CN(C)Cc2ccccc2)[C@H](C)CN([C@@H](C)CO)C(=O)c2cc(NC(=O)CCC(F)(F)F)ccc2O1 | -0.4
C[C@H](CO)N1C[C@H](C)[C@H](CN(C)C(=O)Nc2ccc(F)cc2)Oc2ncc(C#CC(C)(C)O)cc2C1=O | -1.2
C[C@H]1CN([C@@H](C)CO)C(=O)c2cccc(NC(=O)c3nc4ccccc4s3)c2O[C@H]1CN(C)CC1CC1 | 0.5
COc1ccc(CN(C)C[C@H]2Oc3ccc(NC(=O)CCC(F)(F)F)cc3CC(=O)N([C@H](C)CO)C[C@H]2C)cc1 | -0.5
CC(C)NC(=O)N(C)C[C@H]1Oc2c(NC(=O)C3CCOCC3)cccc2C(=O)N([C@H](C)CO)C[C@H]1C | -0.6
C[C@@H]1CCCCO[C@H](CN(C)Cc2ccc(Cl)c(Cl)c2)[C@H](C)CN([C@@H](C)CO)C(=O)c2cc(NS(=O)(=O)c3cn(C)cn3)ccc2O1 | -0.3
C[C@@H]1CN([C@H](C)CO)C(=O)Cc2cc(NS(=O)(=O)c3ccc(Cl)cc3)ccc2O[C@@H]1CN(C)CC1CCCCC1 | 0.1
C[C@@H]1CN([C@H](C)CO)C(=O)Cc2cc(NC(=O)CCN3CCOCC3)ccc2O[C@@H]1CN(C)Cc1ccccc1 | -0.5
C[C@H]1CCCCO[C@H](CN(C)S(C)(=O)=O)[C@@H](C)CN([C@@H](C)CO)C(=O)c2cc(NC(=O)c3ccccc3)ccc2O1 | -1.2
C[C@H]1CN([C@@H](C)CO)C(=O)c2cc(NS(=O)(=O)c3cccs3)ccc2O[C@@H]1CN(C)C(=O)Nc1ccc2c(c1)OCO2 | -1.4
COc1cccc(S(=O)(=O)N(C)C[C@@H]2OCc3cnnn3CCCC(=O)N([C@@H](C)CO)C[C@@H]2C)c1 | -0.3
C[C@@H]1CN([C@H](C)CO)C(=O)c2cc(NC(=O)c3ccncc3)ccc2O[C@@H]1CN(C)C(=O)Nc1ccc(C(F)(F)F)cc1 | -0.1
Cc1ccc(S(=O)(=O)N(C)C[C@H]2OCCCC[C@H](C)Oc3ccc(NC(=O)c4ccccc4)cc3C(=O)N([C@H](C)CO)C[C@@H]2C)cc1 | 1.8
C[C@@H]1CN([C@H](C)CO)C(=O)c2cccc(NC(=O)CCCCCC(=O)Nc3ccccc3N)c2O[C@H]1CN(C)C(=O)NC1CCCCC1 | 0.2
C[C@@H]1CCCCO[C@@H](CN(C)C(=O)Nc2ccccc2)[C@@H](C)CN([C@@H](C)CO)C(=O)c2cc(NC(=O)c3ccccc3)ccc2O1 | 0.0
C[C@@H]1CN([C@@H](C)CO)C(=O)c2cc(NC(=O)CCC(F)(F)F)ccc2O[C@@H]1CN(C)C | 1.6
C[C@H]1CN([C@@H](C)CO)C(=O)Cc2cc(NS(C)(=O)=O)ccc2O[C@@H]1CN(C)Cc1ccccc1 | 1.1
C[C@H](CO)N1C[C@H](C)[C@H](CN(C)C(=O)Nc2cccc3ccccc23)OCCCC[C@H](C)Oc2ccc(NS(C)(=O)=O)cc2C1=O | 1.4
CC(C)NC(=O)N(C)C[C@@H]1OCCCC[C@@H](C)Oc2ccc(NC(=O)CCC(F)(F)F)cc2C(=O)N([C@@H](C)CO)C[C@H]1C | -0.2
COc1ccc(NC(=O)Nc2ccc3c(c2)C(=O)N([C@@H](C)CO)C[C@@H](C)[C@H](CN(C)Cc2ccc(C(=O)O)cc2)O3)cc1 | 1.5
O=C1O[C@H](c2ccccc2)[C@H](c2ccccc2)N2[C@H]1[C@@H](C(=O)NC[C@H](O)c1ccccc1)[C@]1(C(=O)Nc3ccc(C#CC4=CCCCC4)cc31)[C@H]2c1ccc(OCCO)cc1 | -0.1
O=C1C2C=C(I)[C@H](C[C@@H]2OCCCCCCO)[C@@]12CO2 | -0.2

3 structures out of the list, ordered by formula weight, smallest number first:
SMILES | A1 apoptosis 2
C[C@@H]1CN([C@@H](C)CO)C(=O)c2cc(NC(=O)CCC(F)(F)F)ccc2O[C@@H]1CN(C)C | 1.6
C[C@H]1CN([C@@H](C)CO)C(=O)Cc2cc(NS(C)(=O)=O)ccc2O[C@@H]1CN(C)Cc1ccccc1 | 1.1
C[C@@H]1CN([C@H](C)CO)C(=O)c2cccc(NC(=O)CCCCCC(=O)Nc3ccccc3N)c2O[C@H]1CN(C)C(=O)NC1CCCCC1 | 0.2

In the list so far, two contain a thiophene ring, fused or not:
SMILES | A1 apoptosis 2
C[C@H](CO)N1C[C@H](C)[C@@H](CN(C)C(=O)c2ccccc2)OCCCC[C@H](C)Oc2ccc(NS(=O)(=O)c3cccs3)cc2C1=O | 1.2
C[C@H]1CN([C@@H](C)CO)C(=O)c2cc(NS(=O)(=O)c3cccs3)ccc2O[C@@H]1CN(C)C(=O)Nc1ccc2c(c1)OCO2 | -1.4

Compound activity (PubChem BioAssay)

Not all compounds are listed, so the mix of outcomes need not match the whole.
